High-throughput results deposited in PubChem by ICCB-Longwood Screening Facility, Harvard Medical School.
HCMV NEC inh: cytomegalovirus nuclear egress complex inhibition | inhibition, % (test concentration not listed) | 0.15% of 190,000 active | HTRF UL50-UL53 interaction, normalized percent inhibition;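 active means both replicates at 50% or more, plus weaker picks with an unusually low signal ratio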;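 further: stock transfer was 100 nL into about 20 µL; 0% = negative control wells and 100% = wells with untagged competitor protein; inactives centre near -12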
GIV Gai3 FP: inhibitors of GIV GBA-motif binding to rat Galpha-i3. percent of control (FP), % (concentration not given with the values). Galpha-i3/FITC-GIV peptide fluorescence polarization, 90 min; active compounds read low; scaled: aluminum fluoride 0%, vehicle 100%. 0.42% of 210,000 active. AID 1224905;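 active means replicate mean at 85% of control or lower, very high polarization wells dropped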;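 further: wells of about 15 µL received 100 nL stock; the first replicate is given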
Target sequence (P08753 whole entry, looked up): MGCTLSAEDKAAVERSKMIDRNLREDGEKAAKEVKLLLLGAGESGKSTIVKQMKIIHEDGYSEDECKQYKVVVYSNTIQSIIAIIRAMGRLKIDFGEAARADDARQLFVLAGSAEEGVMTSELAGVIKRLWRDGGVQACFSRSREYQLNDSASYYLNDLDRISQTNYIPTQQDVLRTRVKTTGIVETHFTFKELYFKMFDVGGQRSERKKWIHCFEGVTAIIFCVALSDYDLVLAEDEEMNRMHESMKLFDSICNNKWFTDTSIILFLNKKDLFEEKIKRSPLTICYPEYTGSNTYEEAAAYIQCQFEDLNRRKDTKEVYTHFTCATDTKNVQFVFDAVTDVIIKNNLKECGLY
Sa growth inh: inhibitors of Staphylococcus aureus growth at 42 °C; S. aureus RN4220 growth, OD600, 20 h; active compounds read low; relative growth, % (no concentration beside the values); 0.53% of 170,000 active;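 active means growth at 42 °C up to 50% and 20 or more points under that at 30 °C, or under 10% at both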;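 further: 300 nL library stock went into each well; scaled to the means of positive and negative controls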
Sa growth inh second temp: second read-out of Sa growth inh, no call of its own (marks repeat the call); relative growth, %; measured here: growth at 30 °C;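 optical density after 20 h as mean of two plates; 100% = untreated growth and lower means inhibition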
Starred values were filed as active, the others as inactive; x = no result given; & = joins results of further samples. Outcome played no part in choosing rows; about 0.82% have a hit in one of these screens.

nr	smiles	HCMV NEC inh	GIV Gai3 FP	Sa growth inh	Sa growth inh second temp
1	CCN(Cc1ccncc1)Cc1c(O)ccc2ccccc12	-73	x	79	80
2	Cc1ccc(-c2cc(C(=O)NCCc3ccccc3)c3ccccc3n2)cc1C	x	103	116	85
3	COc1ccc(NC2CC(O)C(CO)O2)cc1 (stereo not drawn)	15	97	100	82
4	Cc1nn(-c2ccccc2)c(C)c1CN(C)CC(=O)Nc1ccccc1C#N	-42	x	78	82
5	N#Cc1c(N)nc(SCC(=O)c2ccc(Br)cc2)c(C#N)c1-c1cccs1	40*	100	x	x
6	CCc1ccc(CNC(=O)Cn2nc(C)c3nn(-c4ccc(Cl)cc4)c(C)c3c2=O)cc1	x	97	109	89
7	CCOc1ccc2nc(N3CCCC(C(=O)Nc4ccc(OC)cc4)C3)sc2c1 (stereo not drawn)	-19	104	116	79
8	COc1ccc(-n2c(C)cc(C(=O)COc3ccc(-n4cnnn4)cc3)c2C)cc1	0	x	72	86
9	COc1ccccc1C(=O)CC#N	10	109	65	69
10	Cc1ccc(S(=O)(=O)NNC(=S)Nc2ccccc2)cc1	5	109	99	92
11	O=C1c2ccccc2C(=O)N1CCCCSc1nnc(-c2ccc(OC(F)F)cc2)o1	-7	x	92	90
12	Cc1ccc(/C=C/c2nc(Cn3cnc4ccccc4c3=O)no2)cc1	-53	106	x	x
13	COc1ccc(-c2csc(C3=C(O)CN(CC(C)(C)CN(C)C)C3=N)n2)cc1OC	-8	x	108	99
14	c1ccc(OCc2cc(-c3ccccc3)n[nH]2)cc1	-5	x	96	70
15	Cc1nnc2ccc(N3CCC(C(=O)N4CCN(c5ncccn5)CC4)CC3)nn12	-5	99	x	x
16	Cc1cc2c(cc1NC(=O)c1ccccc1)n(C)c(=O)n2C	-16	106	x	x
17	Cc1cc(C(=O)CN2C(=O)NC(Cc3c[nH]c4ccccc34)C2=O)c(C)n1C (stereo not drawn)	-5	x	107	94
18	COc1ccc(N2CCN(CCCNC(=O)CCCn3c(=O)[nH]c4ccsc4c3=O)CC2)cc1	-13	103	x	x
19	COC(=O)c1ccc(NCC(O)Cn2nnnc2-c2ccccc2)cc1 (stereo not drawn)	-30	105&100	97	90
20	CCC(C)NC(=O)c1cnc2sc(C)c(C)n2c1=O (stereo not drawn)	-22	102	x	x
21	COc1cc2[nH]c(=O)c(C(=O)NCCN3CCNCC3)c(O)c2cc1OC	-14	109	103	98
22	CCC(=O)N1CCc2cc(Br)cc(S(=O)(=O)CCC(=O)N3CCN(c4ccc(OC)cc4)CC3)c21	-6	100	90	88
23	COc1ccc(NC(=O)c2nc(Nc3ccccc3)c3ccccc3n2)cc1OC	-17	112	x	x
24	Cc1ccc(-c2nc3cc(Cl)ccc3o2)cc1NC(=O)c1cc([N+](=O)[O-])ccc1N1CCOCC1	0	111	117	96
25	CCC1CCCCN1CCCNC(=O)c1cc2c(Cl)nc3ccccc3c2s1 (stereo not drawn)	-25	108	109	78
26	CCOc1ccc(N2C(=O)CCC2=O)cc1	-16	x	79	81
27	COc1cccc(-c2nn(Cc3ccccc3)cc2C(=O)N(C)CC(=O)NCc2ccco2)c1	-16	x	83	81
28	Cc1cccc(NC(=O)N2CCC(n3cnc4cccnc43)CC2)c1C	-6	96	x	x
29	Cc1ccc(C)c(NC(=O)CCS(=O)(=O)c2cccc3nsnc23)c1	-37	111	104	108
30	COc1ccccc1-c1cc2nc(C)c(CCC(=O)Nc3ccc4c(c3)OCCO4)c(C)n2n1	-1	108	73	100
31	O=C(Nc1cccc(Cl)c1)C1CCN(c2nccn3nc(-c4ccc(F)cc4)cc23)CC1	-32	109	x	x
32	C=CCN(CC=C)C(=S)Nc1ccc2nsnc2c1	x	101	97	68
33	CSc1sc(C(=O)NN)c2c1C=CCC2	-24	101	88	62
34	Cc1cc(OCC(=O)N(Cc2ccc(N(C)C)cc2)CC2CCCO2)ccc1Cl (stereo not drawn)	-31	98	93	83
35	CCOc1cc(C(Nc2cc(C)ccn2)c2ccc3cccnc3c2O)ccc1OC (stereo not drawn)	-36	109	77	90
36	O=C(O)CCC(=O)NCc1cccc(Oc2ccccc2)c1	-9	103	102	89
37	Cn1c(C2=C(O)CN(c3cccc(Cl)c3)C2=N)nc2ccccc21	-10	98	x	x
38	Cn1c(=O)c2c(SCCN3CCOCC3)nc(-c3ccccc3Cl)nc2n(C)c1=O	-26	105	106	83
39	Cc1cc(NC(=O)C(C)C)n(-c2ncnc3c2cnn3-c2cccc(Cl)c2)n1	-6	105	x	x
40	CCc1ccc(NC(=O)Cn2ncc3c(=O)oc4ccccc4c32)cc1	x	101	87	70
41	CCn1c(-c2ccc3c(c2)OCCO3)cnc1SCC(=O)NC(=O)NCc1ccco1	-6	x	90	89
42	COCC(=O)NC1(c2nnnn2CCOC(=O)Nc2ccc(Cl)cc2)CCCCC1	-21	105	82	60
43	CN(C(=O)c1cccc(N2C(=O)C3C4C=CC(C4)C3C2=O)c1)C1CCCCC1 (stereo not drawn)	x	102	96	81
44	CCOc1ccc2nc(N3CCC(C(=O)NCc4ccccn4)CC3)sc2c1	6	102	x	x
45	CN1/C(=C\C(=O)c2ccccc2)c2ccccc2CC1(C)C	-15	102	102	82
46	CCCn1nnc(NC(=S)NC(=O)c2ccc(-c3cc(Cl)ccc3Cl)o2)n1	-5	x	86	95
47	NC(=O)c1cnn2c(-c3ccc(Cl)cc3Cl)ccnc12	-12	109	x	x
48	Nc1ncnc(Nc2ccc(F)cc2Br)n1	-2	97	103	91
49	CCc1ccc(CN(Cc2ccco2)c2cnc(S(C)(=O)=O)nc2C(=O)Nc2ccc(C)c(Cl)c2)cc1	-10	97	98	91
50	CN(C(=O)CSc1ncccc1C(=O)Oc1ccccc1Cl)c1ccccc1	5	104	106	87
51	COC(=O)Cn1cc(C#N)c2ccccc21	-4	x	118	80
52	CC(=O)N1N=C(c2ccc(C)cc2)OC1c1cccnc1 (stereo not drawn)	7	106	105	89
53	COc1ccc(CNC(=O)Cn2c(=S)[nH]c3ccccc3c2=O)cc1	x	102	116	86
54	CC(=O)OC1=C(C(C)=O)N(Cc2ccccc2)S(=O)(=O)c2ccccc21	-14	95	97	82
55	S=c1[nH]nc(NCc2cccs2)s1	-3	106	58	32
56	O=C(O)c1cccc2[nH]c3c(c12)CCCC3	-22	100	100	102

A draw from above in order of length of the SMILES, highest first.
nr	smiles	HCMV NEC inh	GIV Gai3 FP	Sa growth inh	Sa growth inh second temp
49	CCc1ccc(CN(Cc2ccco2)c2cnc(S(C)(=O)=O)nc2C(=O)Nc2ccc(C)c(Cl)c2)cc1	-10	97	98	91
30	COc1ccccc1-c1cc2nc(C)c(CCC(=O)Nc3ccc4c(c3)OCCO4)c(C)n2n1	-1	108	73	100
31	O=C(Nc1cccc(Cl)c1)C1CCN(c2nccn3nc(-c4ccc(F)cc4)cc23)CC1	-32	109	x	x
13	COc1ccc(-c2csc(C3=C(O)CN(CC(C)(C)CN(C)C)C3=N)n2)cc1OC	-8	x	108	99
17	Cc1cc(C(=O)CN2C(=O)NC(Cc3c[nH]c4ccccc34)C2=O)c(C)n1C (stereo not drawn)	-5	x	107	94
11	O=C1c2ccccc2C(=O)N1CCCCSc1nnc(-c2ccc(OC(F)F)cc2)o1	-7	x	92	90
54	CC(=O)OC1=C(C(C)=O)N(Cc2ccccc2)S(=O)(=O)c2ccccc21	-14	95	97	82
46	CCCn1nnc(NC(=S)NC(=O)c2ccc(-c3cc(Cl)ccc3Cl)o2)n1	-5	x	86	95
7	CCOc1ccc2nc(N3CCCC(C(=O)Nc4ccc(OC)cc4)C3)sc2c1 (stereo not drawn)	-19	104	116	79
4	Cc1nn(-c2ccccc2)c(C)c1CN(C)CC(=O)Nc1ccccc1C#N	-42	x	78	82
29	Cc1ccc(C)c(NC(=O)CCS(=O)(=O)c2cccc3nsnc23)c1	-37	111	104	108
53	COc1ccc(CNC(=O)Cn2c(=S)[nH]c3ccccc3c2=O)cc1	x	102	116	86
12	Cc1ccc(/C=C/c2nc(Cn3cnc4ccccc4c3=O)no2)cc1	-53	106	x	x
16	Cc1cc2c(cc1NC(=O)c1ccccc1)n(C)c(=O)n2C	-16	106	x	x
10	Cc1ccc(S(=O)(=O)NNC(=S)Nc2ccccc2)cc1	5	109	99	92
52	CC(=O)N1N=C(c2ccc(C)cc2)OC1c1cccnc1 (stereo not drawn)	7	106	105	89
36	O=C(O)CCC(=O)NCc1cccc(Oc2ccccc2)c1	-9	103	102	89
14	c1ccc(OCc2cc(-c3ccccc3)n[nH]2)cc1	-5	x	96	70
1	CCN(Cc1ccncc1)Cc1c(O)ccc2ccccc12	-73	x	79	80
56	O=C(O)c1cccc2[nH]c3c(c12)CCCC3	-22	100	100	102
3	COc1ccc(NC2CC(O)C(CO)O2)cc1 (stereo not drawn)	15	97	100	82
26	CCOc1ccc(N2C(=O)CCC2=O)cc1	-16	x	79	81
33	CSc1sc(C(=O)NN)c2c1C=CCC2	-24	101	88	62
9	COc1ccccc1C(=O)CC#N	10	109	65	69

Molecules above containing fluorine:
nr	smiles	HCMV NEC inh	GIV Gai3 FP	Sa growth inh	Sa growth inh second temp
11	O=C1c2ccccc2C(=O)N1CCCCSc1nnc(-c2ccc(OC(F)F)cc2)o1	-7	x	92	90
31	O=C(Nc1cccc(Cl)c1)C1CCN(c2nccn3nc(-c4ccc(F)cc4)cc23)CC1	-32	109	x	x
48	Nc1ncnc(Nc2ccc(F)cc2Br)n1	-2	97	103	91

(further entries)
nr	smiles	HCMV NEC inh	GIV Gai3 FP	Sa growth inh	Sa growth inh second temp
57	O=C(NCCc1ccc(O)cc1)c1ccc2ccccc2c1	x	106	91	79
58	CCC(=O)Nc1ccccc1-c1nnc(SC(CC)C(=O)Nc2ccc3c(c2)OCCO3)[nH]c1=O (stereo not drawn)	-10	99	x	x
59	CN1CCN(c2ccccc2C=C(C(=O)O)C(=O)O)CC1	-25	107	98	90
60	O=S(=O)(Cc1ccccc1Cl)Nc1nc2cc(Cl)ccc2o1	-9	100	74	66
61	CC1(C)CC2CC(C)(CN2C(=O)CSc2nnc(-c3cccs3)n2N)C1 (stereo not drawn)	-16	x	82	93
62	CC1(C)CC(=O)c2cc(NC(=O)c3ccccc3)c(=O)oc2C1	x	99	87	88
63	CCCSc1ncc(Cl)c(C(=O)Nc2ccc(S(=O)(=O)N(C)c3ccccc3)cc2)n1	-4	104	105	90
64	CC(C)CCNC(=O)c1ccc2c(c1)N(Cc1ccccc1)C(=O)CS2=O (stereo not drawn)	-8	99	x	x
65	CC(=O)Nc1cc(C(C)C)c(O)c(C(C)C)c1	-10	103	118	84
66	CC1=C(C(=O)Nc2ccccc2C(=O)NCCCN2CCC(N3CCCCC3)CC2)SCCO1	-14	103	x	x
67	COc1ccc(NC(=O)N2CCN3CCCCC3C2)cc1OC (stereo not drawn)	-2	98&100	98	91
68	CCOC(=O)c1nnc(Cc2ccc(Cl)cc2)o1	0	99	89	92
69	CCOc1ncccc1C(=O)NCCc1c[nH]c2ccccc12	-4	x	102	105
70	CCS(=O)(=O)N1CCC(C(=O)NCCC(C)C)CC1	x	105	114	84
71	Cc1ccc(-c2c(C(F)(F)F)nn3c(NC4CCCC4)cc(C)nc23)cc1	-3	96	x	x
72	CC(C)(C)c1ccc(S(=O)(=O)Nc2ccc3[nH]c(=O)[nH]c3c2)cc1	x	106	88	91
73	Cc1ccc(NC(=O)CCn2c(=O)sc3ccccc32)cc1F	1	102	89	95
74	O=C(Nc1cccc2cccnc12)c1ccc(F)cc1	x	100	99	91
75	COc1ccc(CCNC(=O)c2ccc3c(c2)N(Cc2cccc(C)c2)C(=O)c2ccccc2S3(=O)=O)cc1OC	-19	102	105	97
76	COc1cccc(NC(=O)/C(C#N)=C/c2c(C)n(Cc3ccc(Cl)cc3)c3ccccc23)c1	-36	105	108	88
77	Cc1ccccc1S(=O)(=O)Cc1ccc(C(=O)NC(C)C)o1	4	103	117	99
78	COC(=O)c1ccccc1NC(=O)Cn1nnc2sc3c(c2c1=O)CCCC3	-24	106	x	x
79	CC(C)NC(=O)CN1C(=O)CCn2nc(-c3cn(C)c4ccccc34)cc21	-19	105&103	94	88
80	COc1ccc(C2=NN(C(=O)c3cc(OC)c(OC)c(OC)c3)C(c3ccccc3F)C2)cc1OC (stereo not drawn)	0	98	x	x
81	O=C1CC(C(=O)Nc2ccc(Cl)c(Cl)c2)NC(=NCc2ccco2)N1 (stereo not drawn)	-1	97	125	104
82	COc1cccc(C(=O)Nc2ccc3c(c2)CCCN3C(=O)c2cccs2)c1OC	x	99	83	78
83	CCN(CC)S(=O)(=O)c1ccc(/C=C/C(=O)OCC(=O)N2CC(C)OC(C)C2)cc1 (stereo not drawn)	-55	x	103	88
84	O=C(c1ccc(F)cc1)N1CCN(c2nc3cc(Br)ccc3n3cccc23)CC1	-20	98	x	x
